# Screening results: PubChem, National Center for Advancing Translational Sciences (NCATS)
# Cruzain noTriton: inhibitors of Trypanosoma cruzi cruzain without detergent; 200,000 compounds, 2.3% hits; purified cruzain, Z-FR-AMC fluorescence, no detergent; Potency, µM, for the others: max response, negative = inhibition, most hits filed as inhibitors; active means well fitted curve in the direction sought with a large enough effect; inconclusive means small, poorly fitted or top-dose-only effect, or another doubt; inactive means no such curve, though single readings can be large; an effect the other way counts as inactive or inconclusive;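 further: plate controls were enzyme without inhibitor for no effect and buffer without enzyme for full effect; nearly all actives have a fitted effect of over 40% in size; top concentration of the series not given in the record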
# Target sequence (P25779 123-467 limits assumed): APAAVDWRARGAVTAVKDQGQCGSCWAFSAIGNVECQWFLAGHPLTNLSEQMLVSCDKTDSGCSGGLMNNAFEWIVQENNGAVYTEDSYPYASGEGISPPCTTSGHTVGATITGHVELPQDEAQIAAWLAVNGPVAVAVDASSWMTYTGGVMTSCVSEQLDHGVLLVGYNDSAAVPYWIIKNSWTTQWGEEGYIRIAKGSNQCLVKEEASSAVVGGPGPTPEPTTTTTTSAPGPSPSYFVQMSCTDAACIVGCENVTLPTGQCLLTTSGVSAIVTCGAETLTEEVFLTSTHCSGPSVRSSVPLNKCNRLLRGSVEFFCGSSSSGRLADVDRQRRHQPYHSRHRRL
#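 Purified cruzain at 1.5 nM, pre-incubated 15 min with compound at room temperature in 100 mM sodium acetate pH 5.5, 5 mM DTT, 0.00005% Triton X-100. Reaction started with 2 uM Z-FR-AMC; AMC fluorescence increase over 60 s gives rate.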
# Lassa entry inh: Lassa virus entry inhibition. Lassa virus pseudotype entry inhibition, cell reporter; control for the full effect not named in the record. Potency, µM (series often up to 37.9 µM), for the others: top-dose activity change, negative = inhibition, usual class: inhibitors. AID 540256. 300,000 compounds, 1.2% hits; active means well fitted inhibition curve with a large enough effect; inconclusive means small, poorly fitted or top-dose-only effect, or effect the other way; inactive means flat fitted curve, though single readings scatter; tested in HEK293 cells; further: on the % scale 0 is the no-effect control and ±100 the full control effect; nearly all actives have a fitted effect of over 50% in size; luciferase read-out
# SARS PLP yeast: SARS-CoV PLP inhibition in yeast. S. cerevisiae expressing SARS-CoV PLpro, growth rescue; control for the full effect not named in the record. Potency, µM (highest dose often 32.9 µM), without a hit: top-dose activity, positive = growth rescue. 330,000 compounds, 0.19% hits; further: 0% is about no effect; nearly all actives have a fitted effect of over 55% in size; growth read by luminescence after 48 h
# 2A StopGo: lowers the luciferase signal of an FMDV 2A StopGo reporter. human cells with a luciferase reporter of 2A StopGo recoding; control for the full effect not named in the record. Potency, µM (series often up to 57.9 µM), inactives show at the highest dose signal change, negative = less light. 410,000 compounds, 1.2% hits. AID 1159524; active = well fitted falling curve with a large enough effect; inconclusive = small, poorly fitted or top-dose-only effect; inactive = no such curve, though single readings can be large or run the other way; tested in HEK293T cells; further: on the % scale 0 is the no-effect control and ±100 the full control effect; nearly all actives have a fitted effect of over 45% in size; luciferase light after 4 h
# RE007 growth inh: less growth of the S. pombe RE007 Vpr strain; 360,000 compounds, 0.21% hits; S. pombe RE007 Vpr strain, BacTiter-Glo ATP luminescence, 24 h; control for the full effect not named in the record; Potency, µM (highest dose often 92.2 µM), without a hit: at the top dose activity change, negative = less growth; active = well fitted falling curve with a large enough effect; inconclusive = small, poorly fitted or top-dose-only effect; inactive = no such curve, though single readings can be large or run the other way;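 further: on the % scale 0 is the no-effect control and ±100 the full control effect; nearly all actives have a fitted effect of over 50% in size; the assay follows cell death caused by Vpr and the record does not say whether a fall means rescue or toxicity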
#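 Fission yeast strain RE007, carrying one chromosomally integrated HIV-1 vpr copy, was seeded at OD 0.01 in PMG+AL medium with 23 nL pinned compound. After 24 h at 30 °C and 99% humidity, viability was read by BacTiter-Glo luminescence.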
# Cruzain inh Det: inhibitors of Trypanosoma cruzi cruzain with detergent | P25779 | purified cruzain, Z-FR-AMC fluorescence, 0.01% Triton | Potency, µM, for the others: max response, negative = inhibition, most hits filed as inhibitors | 200,000 compounds, 0.43% hits | AID 1478; active means well fitted curve in the direction sought with a large enough effect; inconclusive means small, poorly fitted or top-dose-only effect, or another doubt; inactive means no such curve, though single readings can be large; an effect the other way counts as inactive or inconclusive;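 further: plate controls were neutral wells for no effect and buffer without enzyme for full effect; nearly all actives have a fitted effect of over 40% in size; top concentration of the series not given in the record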
#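 Z-FR-AMC hydrolysis (2 uM substrate) by cruzain (1.5 nM) monitored kinetically at ex 360/em 450 nm after 15 min room-temperature compound exposure; 0.01% Triton X-100, pH 5.5, 5 mM DTT.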
# Marburg entry inh: blocks Marburg virus binding to or entry into cells. Potency, µM (doses to about 37.8 µM), without a hit: at the highest dose activity change, negative = inhibition, hits mostly inhibitors. Marburg virus pseudotyped entry inhibition, cell reporter; control for the full effect not named in the record; about a third of the inactives were read at about 46 µM. 300,000 compounds, 1.8% hits; active = well fitted inhibition curve with a large enough effect; inconclusive = small, poorly fitted or top-dose-only effect, or effect the other way; inactive = flat fitted curve, though single readings scatter; tested in HEK293 cells; about a fifth of its hits are not listed in these tables; further: on the % scale 0 is the no-effect control and ±100 the full control effect; luciferase read-out
# NS1 function inh: inhibitors of influenza NS1 protein function | 270,000 compounds, 0.4% hits | S. cerevisiae slowed by influenza A NS1, growth recovery by OD600 | Potency, µM (top dose mostly 46.1 µM), for the others: at the top dose activity, positive = more growth | AID 2326; further: actives are rising curves; nearly all actives have a fitted effect of over 50% in size
#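 In this qHTS, NS1 from influenza A is expressed in budding yeast, where it slows growth. Cells are switched from glucose to 2% galactose medium (pH 6.0, -URA), treated with compound, and growth recovery is read at OD600.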
# * marks the source's active call; other numbers are inactive results; u = inconclusive; x = not tested or not shown; & = joins results of further samples; [ ] = dose if it differs, or a comment. Unless noted, the call rests on the fitted dose curve; in most records, active means well fitted rising curve with a large enough effect; inconclusive means small, poorly fitted or top-dose-only effect; inactive means no such curve, though single readings can be large or run the other way. Potency means the concentration at half of the fitted maximal effect.
SMILES,Cruzain noTriton,Lassa entry inh,SARS PLP yeast,2A StopGo,RE007 growth inh,Cruzain inh Det,Marburg entry inh,NS1 function inh
O=C(Nc1nc2ccccc2[nH]1)c1cccc(Cl)c1,x,x,-2%,16%,14%,x,x,6%
Cc1cc(NC(=O)CSCC(=O)Nc2ccccc2N2CCCCC2)no1,x,u,-3%,-5%,-1%,x,u,x
OCC[C@@H]1C[C@H](O)[C@@H](O)[C@]2(OCc3ccccc32)O1,x,x,-1%,-6%,-6%,x,x,-15%
CCc1ccc(N(CC)C(=O)Cn2cnc3sc(C)c(S(=O)(=O)N4CCN(c5ncccn5)CC4)c3c2=O)cc1,-3%,5%[46.1 µM],x,-7%,x,-1.5%,11%[46.1 µM],x
CCNC1(C#N)CCN(Cc2ccccc2)CC1,x,2%,x,-18%,-18%,x,-1%,x
O=C(COC(=O)c1ccc(O)cc1)Nc1cccc(S(=O)(=O)NC2=NCCCCC2)c1,x,8%,0%,59%[activator],8%,x,2%[46.1 µM],-7%
O=C(CSc1ccc([N+](=O)[O-])cn1)Nc1ccc(N2CCOCC2)cc1,x,19%[46.1 µM],0%,-10%,127%,x,6%[46.1 µM],5%
Cc1cccc2sc(NC(=O)c3ccc(Cl)s3)nc12,u,x,1%,-9%,-10%,-1.1%,x,2%
O=C(Cn1c(Cc2ccccc2)nc2ccccc21)NCc1ccc2c(c1)OCO2,-2%,-5%,5%,10%,1%,-2.6%,18%,1%
CC1CN(c2nc3c(c(=O)n(C)c(=O)n3C)n2Cc2c(F)cccc2Cl)CC(C)O1 (stereo not given),u,0%,-3%,-14%,-14%,-0.8%,1%,-25%
O=C(COc1ccc(Cl)cc1)NCCN1CCCCC1,x,11%,1%,-10%,-20%,x,10%,x
COC(=O)[C@@H](NC(=O)N1CCC(C)CC1)C(C)C,x,19%[46.1 µM],0%,20%,-10%,x,-8%[46.1 µM],1%
COC(=O)c1c(-c2cccs2)csc1NC(=O)COc1ccc(C(C)(C)C)cc1,25µM*,2%[46.1 µM],x,-22%,x,-4.3%,5%[46.1 µM],x
Cc1ccc(-c2cc(C(=O)Nc3nccs3)c3ccccc3n2)c(C)c1,u,u,-24%,u,-10%,-1.3%,u,-4%
CC(C)Cn1c(=O)c2ccccc2n2c(CCC(=O)Nc3ccc(F)cc3)nnc12,2%,x,x,-20%,x,0.5%,u,x
COc1cc(OC)cc(C(=O)Nc2ccc([N+](=O)[O-])cn2)c1,10%,-7%,-4%,11%,-14%,-5.4%,u,10%
COc1ccccc1-c1nc(NC(C)=O)n[nH]1,13%,13%,0%,-19%,5%,3.1%,3%,6%
CCCN1C2CCCC1CC(NC(=O)c1ccc(C(C)(C)C)cc1)C2 (stereo not given),x,x,8%,25%,1%,x,x,-4%
COc1cc(OC)c(NC(=O)Cc2ccc(-n3c(C)nc4cccnc43)cc2)cc1Cl,5%,u,x,0%,x,-8.8%,x,x
Clc1ccc(CN2CCN(/N=C/c3ccco3)CC2)cc1,x,5%,-2%,1%,-22%,x,-5%[46.1 µM],3%
COC(=O)CN1C(=O)COc2ccc(S(=O)(=O)NCc3ccc(Cl)cc3)cc21,x,x,-2%,12%,8%,x,x,4%
Cc1ccc(CSCCC(=O)NCCc2ccc(Cl)cc2)cc1,-4%,-13%,-13%,-28%,-4%,-3.8%,6%,-1%
COC(=O)C(C(=O)Nc1cc(C)on1)C1CCCCCC1 (stereo not given),-3%,-25%,0%,-18%,5%,0.3%,-20%,-5%
O=C(Nc1ccccc1Oc1ccccc1)c1cccc([N+](=O)[O-])c1,1%,5%,-10%,u,-25%,-3.4%,-7%,-10%
O=C(CNc1ccccc1)N/N=C/c1cc([N+](=O)[O-])ccc1N1CCCC1,-2%,1%,u,54%[activator],-10%,-7.4%,u,6%
# New compounds follow.
SMILES,Cruzain noTriton,Lassa entry inh,SARS PLP yeast,2A StopGo,RE007 growth inh,Cruzain inh Det,Marburg entry inh,NS1 function inh
O=C(Nc1ccc(N2CCCC2=O)cc1)c1cncc(Br)c1,x,10%,-7%,21%,5%,x,29%,7%
COc1ccc(C(=O)c2c[nH]c(C(=O)N=CN(C)C)c2)cc1,x,x,1%,24%,-17%,x,u,x
Clc1ccc(Cc2ccc(Cl)nn2)c(Cl)c1,1%,4%,-7%,3%,9%,0.2%,-22%,-12%
COc1ccc(NC(=O)[C@H](COCc2ccccc2)NC(=O)OC(C)(C)C)cc1,1%,u,-3%,27%,8%,1.4%,-18%,8%
CCOC(=O)Cn1c(=O)cc(C(F)(F)C(F)(F)F)c2c(C)nn(CC)c21,u,0%[46.1 µM],x,-7%,x,-3.0%,x,x
Cc1ccc(OCCN2C(=O)c3ccccc3C2=O)cc1,u,2%,-3%,37%[activator],-7%,-1.1%,15%,-9%
COc1ccc(CN2CCC(=O)N([C@H](CO)CC(C)C)CC2)cc1OC,x,x,-6%,-9%,-17%,x,x,8%
c1ccc2oc(SCc3nc4ccccc4s3)nc2c1,-20%,u,x,38%[activator],-27%,-3.7%,u,-48%
CC(Sc1nncs1)C(=O)Nc1ccc2c(c1)OCCO2 (stereo not given),x,20%,4%,24%,-6%,x,u,x
CCSc1ccccc1-c1nc(-c2ccncc2)no1,x,x,-10%,11%,-7%,x,x,-134%
Cc1cccc(C(=O)Nc2ccc(C(=O)Nc3ccc(O)cc3)cc2)c1,x,-18%,-1%,-16%,9%,x,-27%,5%
Cc1nc2ccc(S(=O)(=O)N(C)CC(=O)N3CCc4ccccc43)cc2s1,1%,-23%,-8%,u,1%,0.4%,-29%,11%
O=C(Cn1cnc2c(nnn2-c2cccc(Cl)c2)c1=O)N1CCOCC1,-12%,x,0%,-7%,5%,1.1%,x,6%
Cc1ccc(C(CNC(=O)C(=O)Nc2ccc3c(c2)OCCO3)N2CCN(C)CC2)cc1 (stereo not given),x,-14%,x,0%,8%,x,u,x
O=C(NCc1ccco1)c1cnn2c(C(F)F)cc(-c3ccccc3)nc12,-13%,-20%,-3%,-8%,2%,1.7%,2%,-8%
CCOC(=O)N1CCC(NC(=O)CS(=O)Cc2nc(-c3ccc(OC)c(OC)c3)oc2C)CC1 (stereo not given),u,-11%,-3%,-9%,-6%,-0.9%,5%&-6%,-7%
CCCCCC(=O)Nc1ccc(N2CCN(C(=O)c3ccccc3)CC2)cc1,9%,-12%,-2%,u,-21%,2.4%,19%,-28%
C=C(C(=O)c1ccccc1)C(CC(=O)c1ccccc1)c1ccccc1 (stereo not given),1%,10µM*,-12%,18µM*,-1%,-5.2%,u,-14%
COc1ccc(S(=O)(=O)N(C)c2ccc(C(=O)N3CCC(C(N)=O)CC3)cc2)cc1OC,x,8%,0%,-13%,3%,x,9%,-1%
CCOc1ccc(S(=O)(=O)NCCC(=O)OCC(=O)c2ccc(NC(C)=O)cc2)cc1,x,4%,22%,-4%,11%,x,-2%,x
Cc1ccc(C(=O)NCc2ccc(N(C)C)cc2)cc1NC(=O)c1nsc2ccccc12,-15%,5µM*,x,1%,x,-1.4%,x,x
O=C(NCC(c1cccs1)S(=O)(=O)c1cccs1)c1cccc(F)c1 (stereo not given),-15%,-1%[46.1 µM],x,-22%,x,-2.6%,x,x
CCOC(=O)c1nn(-c2ccc(OCC)cc2)c2nc(-c3ccco3)c(C#N)c(=O)n12,19%,-21%,-1%,3%,17%,-7.6%,13%,2%
CNc1ncnc2sc(-c3ccccc3)cc12,x,-30%,-11%,8%,-12%,x,-5%,x
Cc1ccc2[nH]c(=O)c3cc(C(=O)N(C)c4ccccc4C)sc3c2c1,x,x,-1%,-15%,-5%,x,x,-3%

# Rewritten with tabs: entries from further up
mol	Cruzain noTriton	Lassa entry inh	SARS PLP yeast	2A StopGo	RE007 growth inh	Cruzain inh Det	Marburg entry inh	NS1 function inh
Cc1ccc(OCCN2C(=O)c3ccccc3C2=O)cc1	u	2%	-3%	37%[activator]	-7%	-1.1%	15%	-9%
COc1ccc(CN2CCC(=O)N([C@H](CO)CC(C)C)CC2)cc1OC	x	x	-6%	-9%	-17%	x	x	8%
c1ccc2oc(SCc3nc4ccccc4s3)nc2c1	-20%	u	x	38%[activator]	-27%	-3.7%	u	-48%
CC(Sc1nncs1)C(=O)Nc1ccc2c(c1)OCCO2 (stereo not given)	x	20%	4%	24%	-6%	x	u	x
CCSc1ccccc1-c1nc(-c2ccncc2)no1	x	x	-10%	11%	-7%	x	x	-134%

# Going on with the list.
SMILES,Cruzain noTriton,Lassa entry inh,SARS PLP yeast,2A StopGo,RE007 growth inh,Cruzain inh Det,Marburg entry inh,NS1 function inh
OCc1nc2nc(Cl)c(Cl)nc2[nH]1,x,x,2%,-11%,-10%,x,x,3%
CC(=O)c1ccc(NC(=O)c2cc(-c3ccc4c(c3)OCO4)on2)cc1,-6%,1%[46.1 µM],x,-5%,x,-1.4%,10%[46.1 µM],x
Cc1cccc(NC(=O)c2ccc(C3SCC(=O)N3CCc3ccccc3)cc2)c1C (stereo not given),u,u,0%,u,16%,1.0%,u,-9%
O=C(NCc1ccc(Cl)cc1)N1CCOCC1,x,-2%,1%,-5%,9%,x,u,5%
CCCNc1c(NC(=O)C2CCC(C)CC2)c(=O)oc2ccccc12 (stereo not given),x,x,0%,-4%,-6%,x,x,0%
CCOC(=O)c1ccc(NC(=O)C2CCN(S(=O)(=O)c3ccc4c(c3)CCCC(=O)N4)CC2)cc1,1%,0%[46.1 µM],x,-28%,x,-4.7%,x,x
Cn1cnnc1SCC(=O)NCc1ccccc1,x,u,0%,7%,-9%,x,-27%,2%
O=[N+]([O-])c1cc(/C=N/N/C(=N/c2ccccn2)c2ccccn2)ccc1O,x,-22%,-2%,31%[activator],-14%,x,u,x
COCCCNC(=S)NCCNc1nc2cc(C)cc(C)c2cc1C#N,x,-4%,0%,35%[activator],-23%,x,-14%[46.1 µM],1%
